Screening data from PubChem BioAssay.
Vaccinia mCherry: inhibitors of vaccinia virus infection (mCherry reporter signal) | Vaccinia virus mCherry reporter infection, fluorescence; about a quarter of the inactives have no number | Potency, µM (titrated, usually from 36.5 µM), without a hit: at the highest dose activity change, negative = inhibition, actives largely listed as inhibitors | 310,000 tested, 0.63% active | AID 720579; active = well fitted inhibition curve with a large enough effect; inconclusive = small, poorly fitted or top-dose-only effect; inactive = no such curve, though single readings can be large or run the other way; tested in A549 cells; note: nearly all actives have a fitted effect of over 35% in size; inactives centre near -10
Vaccinia Venus: vaccinia inhibition (Venus reporter). Vaccinia virus Venus reporter expression, fluorescence. Potency, µM (highest dose often 36.5 µM), inactives show at the top dose activity change, negative = inhibition, usual class: inhibitors. 330,000 tested, 0.46% active. AID 720580; active means well fitted inhibition curve with a large enough effect; inconclusive means small, poorly fitted or top-dose-only effect; inactive means no such curve, though single readings can be large or run the other way; tested in A549 cells; note: nearly all actives have a fitted effect of over 30% in size; inactives centre near -10
Active calls of the source: *; i = inactive; ? = inconclusive; . = not tested or not shown; [ ] = another dose, or the depositor's remark. % is set by controls: 0 for no effect and ±100 for the full control effect; potency is the fitted concentration of half-maximal effect.

#	Compound	Vaccinia mCherry	Vaccinia Venus
1	NC(=O)CSc1nc2cc(Cl)ccc2c(=O)n1C1CCCCC1	-24%	-29%
2	O=C(O)c1cc(O)ccc1N=Nc1ccccc1	0%	-2%
3	O=C(O)c1cccc(NC2=C(N3CCOCC3)C(=O)c3ccccc3C2=O)c1	?	-9%
4	COc1ccc(C2Nc3cccc4cccc(c34)N2)cc1Br	-20%	0%
5	CC(=O)c1ccc(NC(=O)CN2C(=O)c3cccnc3Sc3ccccc32)cc1	-6%	-7%
6	CCOC(=O)COc1ccccc1/C=C\[N+](=O)[O-]	?	?
7	COc1ccc(-c2[nH]ncc2CN2CCCN(c3ccccc3)CC2)c(F)c1	?	-11%
8	CCOC(=O)c1cc2c(=O)n3ccccc3nc2n(CC(C)C)c1=NC(=O)COc1ccc(Cl)cc1	-24%	-17%
9	CCCNC(=O)Cn1c2ccccc2c2nc(=O)cc(C)n21	20%	9%
10	O=C(Cc1cn2ccsc2n1)Nc1ccccn1	-26%[1.46 µM]	0%
11	COc1ccc(/C=N/Nc2nnc(C)n2N)cc1OC	?	?
12	Cc1cc(NC(=O)C2CCCN(S(=O)(=O)c3cnc[nH]3)C2)ccc1Br (configuration not stated)	8%	-5%
13	CC1CCN(S(=O)(=O)c2ccc3c(c2)oc(=O)n3CC(=O)O)CC1	-9%	-6%
14	COn1c(-n2nc(C)cc2C)nc2ccccc2c1=O	.	2%
15	CC(C)Sc1nnc(-c2c[nH]c3ccccc23)n1C	i	-4%
16	N#CCC(=O)N/N=C/c1ccc(OCc2ccccc2)cc1	-4%	-10%
17	COC(=O)C1=C(C(=O)OC)C2(OC1c1cccc(F)c1)C(=O)c1ccccc1C2=O (configuration not stated)	i	-10%
18	CC12CCC(=O)N1C(C(=O)Nc1cccc(S(=O)(=O)N3CCCCC3)c1)CS2 (configuration not stated)	i	-7%
19	Cc1ccc(Cc2c(-c3ccc(Cl)cc3)nc3cc(C)ccn23)cc1	i	-9%
20	O=C(Nc1ccc(Cl)cc1)c1ccc2c(c1)N(Cc1ccccc1)C(=O)c1ccccc1S2(=O)=O	-25%	-23%
21	O=C(N/N=C/c1cccnc1)c1ccc(CN2c3cccc4cccc(c34)S2(=O)=O)cc1	-19%	-12%
22	COc1ccc(-c2c(-c3cc(OC)cc(OC)c3)n(C)c3ccc(-c4ccc(OC)nc4)cc23)cc1	-8%	-11%
23	Cc1cc(C)cc(NC(=O)CSc2nc3nc(C)cc(C)n3n2)c1	-10%	-13%
24	C=CCN1CC(c2nc3ccccc3n2CCOc2ccccc2)CC1=O (configuration not stated)	i	-1%
25	COc1ccc(CCNCc2ccccc2F)cc1OC	.	-8%
26	COc1ccc(C(=O)NCC(c2cccs2)S(=O)(=O)c2cccs2)cc1 (configuration not stated)	-15%	-5%
27	CN(Cc1ccccc1)S(=O)(=O)c1nnc(NC(=O)c2cccc(Cl)c2)s1	-22%	-25%
28	CCOC(=O)C1CCCN(C(=O)c2ccc(N(C)C)cc2)CC1 (configuration not stated)	52%[activator]	1%
29	O=C(Nc1ccc(Oc2ccccc2)cc1)c1csc([C@@H]2O[C@H](CO)[C@@H](O)[C@H]2O)n1	i	-18%
30	O=C(NC1CCCCC1)C(c1ccnc2ccccc12)N1CCc2ccccc2C1 (configuration not stated)	35%	-5%
31	COc1ccc(NC(=O)Cn2c(=O)n(-c3ccc(OC)cc3)c(=O)c3sc4ccccc4c32)cc1	-8%	-11%
32	O=C(Nc1ccc(C(=O)N2CCCCC2)cc1)C1CCC1	7%	0%
33	Cc1ccn2c(=O)nc(SCC(=O)N3CCC(C)CC3)nc2c1	-9%	-2%
34	CC(C)NC(=O)N(C)C[C@H]1Oc2ccc(NS(=O)(=O)c3ccccc3)cc2C(=O)N([C@H](C)CO)C[C@H]1C	3%	-6%
35	COc1ccc(/C=C/C(=O)C2(O)CCCCC2)cc1	-7%	-4%
36	COc1ccccc1N(C)S(=O)(=O)c1ccc(Cl)c(C(=O)Nc2cccc(C)n2)c1	-15%	-8%
37	COc1ccccc1/C=N/NC(=O)c1ccc2c(c1)OCO2	-11%	-5%
38	Cc1nc2nc(C)n(CCN3CCOCC3)c(=O)c2c(-c2cccc([N+](=O)[O-])c2)c1C(=O)CCCCCCCCCCN1CCC(c2ccccc2)(c2ccccc2)CC1	?	10µM*
39	Nc1cccc(-c2cncc(N3CCN(Cc4ccccn4)CC3)n2)c1	-5%	-3%
40	C=CCN1C(=O)c2ccc(C(=O)N(CC)CC(=O)Nc3c(F)cccc3F)cc2C1=O	-12%	3%
41	O=C(Oc1ccccc1C(=O)N1CCOCC1)c1ccc(F)cc1	i	-9%
42	CC(C)[C@H]1C(=O)Nc2ccccc2N1C(=O)N[C@@H](Cc1ccccc1)C(=O)N[C@H](Cc1ccccc1)C(=O)O	-5%	-3%
43	O=c1c2ccccc2c(=O)n(Cc2ccccc2)n1Cc1ccccc1	-24%	-19%
44	COc1cc(-c2ccno2)ccc1S(=O)(=O)N1CCN(c2ccc(C(C)=O)cc2)CC1	-22%	-17%
45	COc1ccc(C(=O)Nc2cc(C)ccc2NC(=O)COc2ccccc2)cc1	.	-22%
46	Clc1ccccc1C=NNc1ccccn1	0%	-2%
47	CC(Oc1ccccc1F)C(=O)NCC1(N2CCOCC2)CCCCC1 (configuration not stated)	-10%	-7%
48	CCCCC(=O)NC(c1ccc([N+](=O)[O-])cc1)c1c(O)ccc2ccccc12 (configuration not stated)	?	?
49	Cc1cc(C)cc(-n2c3ccc(NC(=O)Cc4cccc5ccccc45)cc3c(=O)n2C)c1	6%	-27%
50	CN(CCNC(=O)c1cccc(N2CCCC2=O)c1)Cc1ccccc1	-3%	3%
51	COc1cc(S(=O)(=O)NC2CCCCC2C)ccc1-n1cnnn1 (configuration not stated)	i	-1%
52	O=c1[nH]ccc2c([N+](=O)[O-])cccc12	-8%	-6%
53	Cc1cc(C)c(NC(=O)Cn2c(=O)n(CCC(=O)N3CCc4ccccc4C3)c(=O)c3ccccc32)c(C)c1	?	-24%
54	CCCn1c2ccccc2c2cn[nH]c(=O)c21	i	-18%
55	N=Cc1c(O)n(-c2ccc(C34CC5CC(CC(C5)C3)C4)cc2)c(=O)[nH]c1=O	-22%	-3%
56	COc1cc(N2CCCC2)c(OC)cc1/C=C(/C#N)c1cccc(Br)c1	-10%	6%
57	Cc1cc(OCC(=O)N(Cc2cccs2)C2CCS(=O)(=O)C2)ccc1Cl (configuration not stated)	-5%	-13%
58	Cc1cc(C(=O)N/N=C2\CC(=O)CC(C)(C)C2)c(C)n1-c1ccc(F)cc1	i	-14%
59	O=C(NCc1ccccc1Cl)C1CCN(C(=O)N2CCOc3ccccc32)CC1	-7%	-8%
60	O=C(O)c1ccccc1NS(=O)(=O)c1ccc(N/N=C/c2ccc(O)c(O)c2)c([N+](=O)[O-])c1	-26%	-27%

Record cards, from the list above:
`O=C(O)c1ccccc1NS(=O)(=O)c1ccc(N/N=C/c2ccc(O)c(O)c2)c([N+](=O)[O-])c1` as listed: Vaccinia mCherry = -26%; Vaccinia Venus = -27%
`Clc1ccccc1C=NNc1ccccn1` as listed: Vaccinia mCherry = 0%; Vaccinia Venus = -2%
`COc1cc(S(=O)(=O)NC2CCCCC2C)ccc1-n1cnnn1` (configuration not stated) as listed: Vaccinia mCherry = i; Vaccinia Venus = -1%

More records:
#	Compound	Vaccinia mCherry	Vaccinia Venus
61	CCCn1c2ccccc2c2cnn(CC(=O)N3CCN(c4ccccc4F)CC3)c(=O)c21	i	-8%
62	c1cc(-c2cc3nc(NC4CCCCC4)ccn3n2)ccc1OCCN1CCOCC1	?	?
63	Cc1cccc(N2CCN(C(=O)c3ccc4c(c3)N(Cc3ccccc3)C(=O)c3ccccc3S4(=O)=O)CC2C)c1 (configuration not stated)	-14%	-12%
64	CCCc1cc(=O)n2[nH]c(NC(=O)c3ccc(C(C)(C)C)cc3)nc2n1	1%	5%
65	COC(=O)c1ccccc1NS(=O)(=O)c1ccc(NC(C)=O)cc1	-16%	-21%
66	CCCCC(Sc1nc2cc3c(cc2c(=O)n1CCCC(=O)NCc1ccc(OC)cc1)OCO3)C(=O)OCC (configuration not stated)	?	?
67	COc1cc([C@@H]2c3cc4c(cc3[C@H](OC(C)=O)[C@H]3COC(=O)[C@@H]23)OCO4)cc(OC)c1OC	?	-25%
68	N#C/C(=C\c1cc2ccccc2nc1N1CCCCC1)C(N)=O	-25%	-14%
69	CCOc1cccc(-c2ccc3nncn3c2)c1	-2%	-1%
70	CN(Cc1cnccn1)C(=O)CC1C(=O)NCCN1Cc1c(F)cccc1Cl (configuration not stated)	-20%[7.34 µM]	-5%[7.34 µM]
71	O=c1[nH]c(N2CCN(Cc3ccc4c(c3)OCO4)CC2)nc2c1CCC2	.	-20%
72	Cc1nn(S(=O)(=O)c2ccc(C(C)(C)C)cc2)c(C)c1S(=O)(=O)N1CCCCCC1	-6%	-5%
73	COC(=O)c1cc2nc(-c3ccccc3)cc(C)n2n1	.	-19%
74	CCN(CC)S(=O)(=O)c1cc(NS(=O)(=O)c2cccc(C(=O)O)c2)ccc1C	-8%	-10%
75	Cc1ccc(-n2c(O)c(C=Nc3ccccc3-c3n[nH]c(=S)[nH]c3=O)c3ccccc3c2=O)cc1C	i	-23%
76	O=c1oc(-c2cccs2)nc2scc(-c3cccs3)c12	.	-11%
77	C=CCn1c(N)nc2ccccc21	.	4%
78	CC(C)C(C(=O)NCC1CCCO1)N(Cc1ccco1)C(=O)CNS(=O)(=O)c1ccc(F)cc1 (configuration not stated)	.	-8%
79	COc1ccc(NS(=O)(=O)c2ccc(Oc3c(C#N)cccc3C#N)cc2)cc1	-5%	4%
80	Cc1ccc(-c2nn(CCC(=O)NCC3CCCO3)c(=O)c3ccccc23)cc1 (configuration not stated)	-14%	-7%
81	Cc1nc(SCC(=O)Nc2nc3ccccc3s2)n[nH]1	-26%	-14%
82	O=C(O)c1ccc(-n2cccc2/C=N\NC(=O)c2cc3cc(Br)ccc3o2)cc1	i	5%
83	O=C1C2C3C=CC(C4CC34)C2C(=O)N1/N=C/c1ccc(-c2ccc(Cl)cc2[N+](=O)[O-])o1 (configuration not stated)	.	-14%
84	COc1ccc2cc([C@H](C)C(=O)N(C)Cc3ccccc3N3CCCC3)ccc2c1	-25%	-15%
85	COc1cc2c(cc1NC(=O)CN(C)Cc1cccc(OC)c1OC)oc1ccccc12	-17%	-28%
86	Cc1nn(Cc2c(Cl)cccc2Cl)c(C)c1NC(=O)CCCn1nc(C)c([N+](=O)[O-])c1C	0%	-5%
87	Cc1ccc(C)c(NC(=O)C2C3C=CC(O3)C2C(=O)O)c1 (configuration not stated)	-14%	-6%
88	COc1cc(=O)n2c(c1C(=O)NCc1ccco1)CCN(Cc1ccccc1)CC2	3%	11%
89	CCCCC(=NCCO)C1=C(O)C(C(=O)OC)C(C)(C)CC1=O (configuration not stated)	.	-10%
90	CSc1ccc(CNC(=O)c2cc3c(=O)n(Cc4ccco4)ccc3nc2C)cc1	-7%	-4%
91	COc1ccc(-c2nc3c4ccccc4n(CC(=O)N4CCN(c5ccccc5OC)CC4)c(=O)n3n2)cc1	6%	6%
92	Cc1ccc(/C=N/NC(=O)Cn2cnc3ccccc32)cc1	-21%	-16%
93	COc1ccc(N(CN2C(=O)c3ccccc3C2=O)C(=O)COc2ccc(Cl)cc2Cl)cc1	-11%	-1%
94	CCOc1cc(-c2nnc(SCC(=O)NCc3ccc(C)cc3)nc2-c2ccc(OC)c(OCC)c2)ccc1OC	-11%	-13%
95	COc1ccc(CCn2c(=N)c(C(=O)NCc3ccco3)cc3c(=O)n4ccccc4nc32)cc1	?	?
96	COc1ccc(/C=C/c2nnc(NC(=O)COc3ccccc3)s2)cc1	i	-2%
97	O=C1C(Br)=C(c2ccccc2)C(c2ccccc2)=C1c1ccccc1	-7%	-10%
98	CC1(C)CC(=O)C2=C(C1)NC(=O)CC2c1ccccc1F (configuration not stated)	.	?
99	Cc1cccn2c(Nc3ccccc3)c(-c3cccs3)nc12	-9%[7.34 µM]	-2%[7.34 µM]
100	Cc1ccc(CCN2CC(C(=O)NCCCN(C)Cc3ccccc3)CC2=O)cc1 (configuration not stated)	.	-8%
101	Cc1cccc(C(=O)N2CCc3ccccc3C2)c1[N+](=O)[O-]	-12%	-10%
102	C=CC[C@H](CC(=O)NCCO)C(=O)N[C@H](COC(=O)[C@@H](CC=C)CC(=O)OC(C)(C)C)Cc1c[nH]c2ccccc12	-14%	-17%
103	Cn1c(CN2CCCC2)nc2cc(NC(=O)COc3ccccc3)ccc21	.	-16%
104	O=C1OC(c2cccc([N+](=O)[O-])c2)C2(CCCC2)C(=O)C12CCCCC2 (configuration not stated)	-24%	-16%
105	CCOc1ccccc1C(=O)Nc1cc2c(cc1N1CCOCC1)n(C)c(=O)n2C	-9%	-8%
106	COCCN(C)C(=O)c1cnn(-c2nccc(-c3cc(OC)ccc3OC)n2)c1C	i	-3%
107	CC(=O)NC1CCC(=O)C=C1c1ccccc1 (configuration not stated)	i	-7%
108	CCCCc1ccc(NC(=S)NCC2CCCO2)cc1 (configuration not stated)	i	-18%
109	COc1cccc(Cn2cnc(-c3ccccc3OC)c2-c2cc(C)cc(C)c2)c1	4%	-8%
110	CC/C(=C(\c1ccc(O)cc1)c1ccc(OCCN(C)C)cc1)c1ccccc1	-16%	?
